D2 PAM – Beta-Arrestin HTS for Positive Allosteric Modulators of the Human D2 Dopamine Receptor: Potentiators; DiscoveRx D2 beta-arrestin cells, luminescence, 90 min; 100% = 57 uM dopamine signal; AID 624464, 2012; D(2) dopamine receptor (Homo sapiens), P14416; potentiation, % (concentration not given with the values); 0.23% of 360,000 active; active = potentiation of 50% or more; inconclusive = 30% to 50%; inactive = 30% or less;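 also: compound concentration not given in the record; tested on top of an EC20 dose of dopamine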
Target sequence (P14416 whole entry, looked up): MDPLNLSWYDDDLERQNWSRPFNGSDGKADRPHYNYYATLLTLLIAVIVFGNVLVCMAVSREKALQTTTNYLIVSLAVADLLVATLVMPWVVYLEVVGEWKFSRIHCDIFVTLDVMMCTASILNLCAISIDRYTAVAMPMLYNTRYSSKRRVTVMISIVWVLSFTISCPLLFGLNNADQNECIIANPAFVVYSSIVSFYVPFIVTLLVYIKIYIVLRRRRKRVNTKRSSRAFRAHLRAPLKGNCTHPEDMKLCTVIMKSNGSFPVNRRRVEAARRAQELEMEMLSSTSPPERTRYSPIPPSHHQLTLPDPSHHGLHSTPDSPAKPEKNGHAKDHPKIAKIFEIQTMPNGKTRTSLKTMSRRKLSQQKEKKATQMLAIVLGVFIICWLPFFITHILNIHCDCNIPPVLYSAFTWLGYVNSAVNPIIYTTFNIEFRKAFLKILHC
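PathHunter D2 cells, attached overnight at 37 deg C, received compound in DMSO plus dopamine at EC20 (50 nM final) for 90 min at 37 deg C. Beta-arrestin recruitment was read as luminescence after 1 h with detection reagent at ambient temperature.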
D2 agonist – Beta-Arrestin HTS for Positive Allosteric Modulators of the Human D2 Dopamine Receptor: Agonists; D(2) dopamine receptor (Homo sapiens), P14416; DiscoveRx PathHunter D2 beta-arrestin, luminescence, 90 min; 100% = 57 uM dopamine signal; activation, % (concentration not given with the values); 0.084% of 360,000 active; in the data active = activation above about 40%; inconclusive = about 15% to 40%; inactive = below about 15%; also: compound concentration not given in the record; the text of the record calls up to 30% inactive
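Agonist mode: compounds alone added to overnight-plated D2 PathHunter cells for 90 min at 37 C, with 57 uM final dopamine (EC100) defining full response. Beta-arrestin recruitment detected by chemiluminescent reagent, read after 1 h at ambient temperature.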
PINK1 modulator – A Quantitative High throughput Screen to Identify Chemical Modulators of PINK1 Expression; PINK1 immunofluorescence, high-content cytometry, 24 h; AID 624263, 2012; 0.2% of 410,000 active; Potency, µM (titrated, usually from 76.6 µM), for the others: at the top dose activation (PINK1 increase), actives largely listed as activators; active = well fitted activation curve with a large enough effect; inconclusive = small, poorly fitted or top-dose-only effect; inactive = flat fitted curve, though single readings scatter; cell line not stated here;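 also: potency is read from the fitted curve at half-maximal effect; % of control where 0% means no effect; nearly all actives have a fitted effect of over 65% in size; a mitochondrial uncoupler was the plate control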
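Fluorescence from anti-PINK1 antibody, together with nuclear and cell stains, was scanned on a laser-scanning cytometer. Before staining, stable-line cells were incubated 24 hours with compounds at 5 concentrations; primary antibody 12 h at 10 degrees C.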
Six1-Eya2 blk – qHTS Assay for Inhibitors of the Six1/Eya2 Interaction; AlphaScreen GST-Six1/His-Eya2 binding, biochemical; stronger effect = lower value; control for the full effect not named in the record; activity change, % (no concentration beside the values); 0.56% of 360,000 active; AID 651725, 2012; in the data active = activity change below about -65%; inconclusive = about -30% to -65%; inactive = above about -30%; also: % is scaled to controls: 0 for no effect and ±100 for the full control effect; compound concentration not given in the record
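Homogeneous AlphaScreen proximity assay pairing GST-Six1 with His-tagged Eya2 (added as 5X mix: 250 nM and 500 nM) in 50 mM Tris pH 8.0, 300 mM NaCl, 1 mM TCEP. Glutathione donor and nickel acceptor beads; 1 h, 37 °C, dark.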
TRPML1 blocker – qHTS for Inhibitors of the Human Mucolipin Transient Receptor Potential 1 (TRPML1); Mucolipin-1 (Homo sapiens), Q9GZU1; TRPML1-inducible cells, Ca2+ dye fluorescence, FDSS; stronger effect = lower value; inhibition of EC80 agonist-evoked calcium signal; activity change, negative = inhibition, % (test concentration not listed); 0.02% of 390,000 active; AID 624415, 2012; in the data active means activity change below about -50%; inconclusive means about -30% to -50%; inactive means above about -30%;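 also: stimulus is agonist 54-4 at its EC80 concentration; % is scaled to controls: 0 for no effect and ±100 for the full control effect; compound concentration not given in the record; the text of the record puts the active cut at -80%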
Target sequence (Q9GZU1 whole entry, looked up): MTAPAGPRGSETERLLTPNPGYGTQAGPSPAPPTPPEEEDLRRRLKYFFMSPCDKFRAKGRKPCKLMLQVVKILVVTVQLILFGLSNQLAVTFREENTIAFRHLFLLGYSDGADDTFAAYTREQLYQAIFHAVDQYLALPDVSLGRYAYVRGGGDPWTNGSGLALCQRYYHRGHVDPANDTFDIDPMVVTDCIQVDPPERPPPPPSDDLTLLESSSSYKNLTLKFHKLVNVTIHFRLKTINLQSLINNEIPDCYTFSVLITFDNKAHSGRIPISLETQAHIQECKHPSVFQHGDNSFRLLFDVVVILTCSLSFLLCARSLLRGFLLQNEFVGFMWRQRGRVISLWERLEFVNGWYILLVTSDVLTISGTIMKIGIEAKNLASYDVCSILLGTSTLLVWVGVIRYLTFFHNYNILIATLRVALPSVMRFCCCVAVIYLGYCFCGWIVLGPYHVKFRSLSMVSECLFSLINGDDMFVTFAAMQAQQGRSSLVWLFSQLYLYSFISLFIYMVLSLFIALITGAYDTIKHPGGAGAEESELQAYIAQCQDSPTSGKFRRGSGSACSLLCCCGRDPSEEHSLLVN
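Tet-induced TRPML1-DL cells loaded with Ca8 no-wash calcium dye were read kinetically on FDSS. Compound addition was followed by EC80 agonist 54-4 (4 uM final); inhibition was read over 110 s.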
TRPML1 agonist – qHTS for Agonists of the Human Mucolipin Transient Receptor Potential 1 (TRPML1); activation, % (test concentration not listed); AID 624414, 2012; 0.12% of 410,000 active; TRPML1-expressing cells, Ca2+ dye fluorescence, FDSS; host cell line not named in the record; reference of the full effect not given here; Mucolipin-1 (Homo sapiens), Q9GZU1; in the data active = activation above about 50%; inconclusive = about 30% to 50%; inactive = below about 30%; also: 0% is about no effect; the text of the record puts the active cut at 80%
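Calcium fluorescence on an FDSS kinetic reader gave the read-out. Tet-induced TRPML1-DL cells were plated overnight, dye-loaded (Ca8 with quencher, 45-90 min, room temperature, dark), then read 110 s after compound addition, and again 110 s after 4uM final 54-4 (EC80).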
* = called active by the depositor; u = inconclusive; x = not tested or not shown; [ ] = dose if it differs, or a comment.

mol	TRPML1 blocker	D2 PAM	D2 agonist	TRPML1 agonist	Six1-Eya2 blk	PINK1 modulator
Cc1ccc2cc(C#N)c(NCc3ccco3)nc2c1	-6	-3	1.4	1.5	-2	4.7%
O=C(NCC(c1ccc2c(c1)OCO2)N1CCN(c2ccccc2)CC1)c1ccccc1F (configuration not stated)	23	x	x	3.0	x	1.4%
Cc1ccc(S(=O)(=O)NC2CC3CCC2C3)cc1 (configuration not stated)	-10	-10	0.6	0.7	0	-0.4%
CCOc1ccccc1C(=O)N(Cc1ccc(N(C)C)cc1)Cc1ccco1	-7	x	x	0.9	x	1.4%
COc1ccc(CNCc2c(C(=O)N(C)C)nc3ccc(Cl)cn23)c(OC)c1	2	-9	-3.0	0.5	5	2.9%
O=[N+]([O-])c1cc(C(F)(F)F)cc([N+](=O)[O-])c1NCCNC(=S)Nc1ccc(Cl)c(Cl)c1	8	-5	12	1.1	-25	0.7%
COc1cccc(NS(=O)(=O)c2cn(C)c(=O)n(C)c2=O)c1	-10	-7	-4.1	-0.3	-1	0.2%
Fc1ccc(CSc2ccc(-c3ccco3)nn2)cc1	4	9	0.1	0.6	10	u
O=C(COC(=O)[C@@H]1CCCN1S(=O)(=O)c1ccccc1F)Nc1ccc(OC(F)F)cc1	12	7	0.3	-0.4	8	0.1%
O=C(CC1SC(=Nc2ccccc2)N(CCO)C1=O)Nc1ccccc1 (configuration not stated)	-16	-5	-3.6	1.2	-3	2.3%
CCOc1ccc(N(C(=O)Nc2ccccc2)C2=NCCC2)cc1	-11	6	-1.0	3.1	-1	x
C[C@@H]1CN([C@@H](C)CO)C(=O)CCCn2nncc2CO[C@H]1CN(C)Cc1ccc(Oc2ccccc2)cc1	6	-1	-8.7	0.0	-3	-0.8%
Cc1cccc(N2CCN(C(=O)c3c(Cl)cnn3C)CC2)c1C	28	-16	2.6	0.3	1	-0.5%
Cc1cc(C(=O)N2CCCC(C(=O)c3cccc(C(F)(F)F)c3)C2)n[nH]1 (configuration not stated)	-8	-3	11	0.7	9	-1.7%
O=C(O)C1CCC(NSc2ccccc2[N+](=O)[O-])CC1 (configuration not stated)	-4	-4	-1.5	1.7	-11	-0.2%
CCCCCCOc1ccc(N2C(=O)CC(NCc3ccc(S(N)(=O)=O)cc3)C2=O)cc1 (configuration not stated)	7	-15	-4.6	-0.2	7	1.9%

Molecules listed so far that contain a nitro group on carbon (2):
mol	TRPML1 blocker	D2 PAM	D2 agonist	TRPML1 agonist	Six1-Eya2 blk	PINK1 modulator
O=[N+]([O-])c1cc(C(F)(F)F)cc([N+](=O)[O-])c1NCCNC(=S)Nc1ccc(Cl)c(Cl)c1	8	-5	12	1.1	-25	0.7%
O=C(O)C1CCC(NSc2ccccc2[N+](=O)[O-])CC1 (configuration not stated)	-4	-4	-1.5	1.7	-11	-0.2%

(list continues)
mol	TRPML1 blocker	D2 PAM	D2 agonist	TRPML1 agonist	Six1-Eya2 blk	PINK1 modulator
COc1ccc(C(C(=O)NC2CCCC2)N(C(=O)c2snc(C(N)=O)c2N)c2cccc(O)c2)cc1 (configuration not stated)	9	18	u	-0.2	-8	1.4%
O=C(NCc1ccc2c(c1)OCO2)C1CCCN(S(=O)(=O)c2cccc3cccnc23)C1 (configuration not stated)	-9	-3	-0.4	0.1	-4	0.5%
O=C(CC1C(=O)NCCN1Cc1ccc(Cl)c(F)c1)NC1CCCCC1 (configuration not stated)	-5	-2	-4.6	0.6	-1	-0.3%
Cc1ccc(/C=C2\SC(=S)N(CCCC(=O)Nc3cccc(C(=O)O)c3)C2=O)cc1	5	-9	1.1	0.1	-4	-0.8%
CCOc1ccccc1NC(=O)N1CCN(S(=O)(=O)c2ccc3c(ccn3C)c2)CC1	14	x	x	1.0	x	-0.9%
COc1cc2ccccc2cc1C(=O)Nc1ccc(Cl)c(-c2nc3ccccc3o2)c1	-13	x	x	2.3	x	4.0%
CN(C)C(=S)Nc1ccc(Br)c(Cl)c1	-8	-1	-2.3	-0.4	-2	0.1%
COc1cc(OC)c2ccc(=O)oc2c1C(CCN1CCOCC1)c1ccc2c(c1)OCO2 (configuration not stated)	-19	-15	-7.6	-0.7	-2	-0.8%
NC(=O)C1CCN(C(c2ccccc2Cl)c2nnnn2Cc2ccc3c(c2)OCO3)CC1 (configuration not stated)	-11	4	-2.6	0.0	5	3.5%
Fc1ccc(NC(=S)N2CCN(c3ncccn3)CC2)cc1	35	-11	-3.2	0.3	13	-3.0%
CCC[C@@H]1Cc2ccccc2N1C(C)=O	52	-14	-3.5	1.2	1	0.5%
O=C(CSc1nnc(-c2ccccc2Cl)o1)Nc1ccc2c(c1)OCCO2	8	-5	-1.4	0.7	-8	8.3%[38.3 µM]
N#C/C(=C\c1ccc(-c2ccc([N+](=O)[O-])cc2)o1)C(=O)Nc1nc(-c2cccs2)cs1	-101*	-5	0.8	0.2	-10	4.3%
COc1cc(F)ccc1S(=O)(=O)N1CCN(C23CC4CC(CC(C4)C2)C3)CC1	17	-1	-2.5	-1.1	-4	0.0%
Cc1ccc(C)c2c(N)c3c(nc12)CCCCC3 (tested in a mixture with another compound)	0	-2	-5.6	-0.8	-12	-3.4%
Cc1ccc(NC(=O)c2nc(S(=O)(=O)Cc3ccc(F)cc3)ncc2Cl)cc1C	-9	x	x	1.7	x	8.5%

Quoted from the listing.
Cc1ccc(C)c2c(N)c3c(nc12)CCCCC3 (tested in a mixture with another compound) – D2 PAM = -2
Fc1ccc(NC(=S)N2CCN(c3ncccn3)CC2)cc1 – D2 agonist = -3.2
Cc1ccc(NC(=O)c2nc(S(=O)(=O)Cc3ccc(F)cc3)ncc2Cl)cc1C – PINK1 modulator = 8.5%
CCC[C@@H]1Cc2ccccc2N1C(C)=O – PINK1 modulator = 0.5%
N#C/C(=C\c1ccc(-c2ccc([N+](=O)[O-])cc2)o1)C(=O)Nc1nc(-c2cccs2)cs1 – Six1-Eya2 blk = -10

Next section
mol	TRPML1 blocker	D2 PAM	D2 agonist	TRPML1 agonist	Six1-Eya2 blk	PINK1 modulator
O=C(CCC(=O)Nc1ccc(F)cc1)N/N=C/c1ccncc1	-5	-2	0.3	2.0	-18	-0.7%
COc1ccc(N2CCN(C(=O)c3nn(C)c4c3CSc3ccccc3-4)CC2)cc1	19	x	x	0.5	x	1.2%
O=C(CCC1COc2ccccc2O1)NCC1COc2ccccc2O1 (configuration not stated)	11	-12	-4.0	-0.1	3	0.0%
O=c1onc(-c2ccccc2)n1-c1cc(Cl)cc(Cl)c1	2	25	u	1.9	11	2.0%
COc1ccc(NCC(O)Cn2c(C)c(C)c3ccccc32)cc1 (configuration not stated)	-6	-3	-3.4	0.7	u	5.4%
CCc1c(C(=O)NN2C(=O)C3CCCCC3C2=O)csc1C (configuration not stated)	8	-8	-6.3	0.6	7	2.5%
Cc1ccnc(NC(=O)CCC(=O)c2cccs2)c1	-4	-2	-1.1	0.7	0	0.3%
COc1ccc(CN2CC(C(=O)NCCC(C)C)CC2=O)cc1 (configuration not stated)	17	-51	-3.2	0.0	4	-0.4%
CCOC(=O)c1sc(NC(=O)C(CC)Sc2nccn2C)nc1C (configuration not stated)	12	4	-1.1	3.2	-2	-0.3%[38.3 µM]
COc1ccc(-c2[nH]c(-c3ccccc3)nc2SCC(=O)Nc2ccc3c(c2)OCO3)cc1	-9	x	x	0.9	x	-0.2%
Cc1ccccc1NC(=O)c1cc2c([nH]c1=O)CC(C)(C)CC2=O	-12	x	x	-0.3	x	1.9%
Cc1cccc(C(=O)OCC(=O)N2CCCC2=O)c1[N+](=O)[O-]	-22	-5	-3.0	2.4	0	0.2%
CCc1ccccc1N(CC(=O)N1CCN(c2ccc(F)cc2)CC1)S(C)(=O)=O	8	-26	1.0	-0.2	-4	-0.3%[38.3 µM]
Cc1ccc(CNC(=O)C2CCC(=O)N(Cc3ccc(Cl)cc3)C2)cc1F (configuration not stated)	15	6	1.8	-0.2	-2	1.5%
COc1ccccc1NS(=O)(=O)c1cc(NC(=O)c2cccs2)ccc1N1CCCC1	-5	-15	-0.9	2.0	-10	-1.7%
O=C(c1ccc(Cl)cc1)N1CCc2c([nH]c3ccccc23)C1C(F)(F)F (configuration not stated)	17	-4	0.9	1.4	-10	8.1%

Part of the list above in order of SMILES length, smallest number first.
mol	TRPML1 blocker	D2 PAM	D2 agonist	TRPML1 agonist	Six1-Eya2 blk	PINK1 modulator
Cc1ccc2cc(C#N)c(NCc3ccco3)nc2c1	-6	-3	1.4	1.5	-2	4.7%
COc1cccc(NS(=O)(=O)c2cn(C)c(=O)n(C)c2=O)c1	-10	-7	-4.1	-0.3	-1	0.2%
O=C(CSc1nnc(-c2ccccc2Cl)o1)Nc1ccc2c(c1)OCCO2	8	-5	-1.4	0.7	-8	8.3%[38.3 µM]

New compounds follow:
mol	TRPML1 blocker	D2 PAM	D2 agonist	TRPML1 agonist	Six1-Eya2 blk	PINK1 modulator
CC(C)(C)c1ccc2c(c1)N(CC(=O)NCCCN1CCN(c3ccccc3F)CC1)C(=O)CO2	3	x	x	-0.1	x	-0.3%
COc1cccc(N2C(=O)CN(Cc3cc(OC)c(OC)c(OC)c3)C2=S)c1	12	1	0.9	1.6	4	4.0%
O=C(Cc1cccc2ccccc12)N1CCCc2ccccc21	-2	0	-2.7	-0.2	7	-1.0%
O=C(Cc1ccsc1)NNC(=O)c1ccccc1O	-19	17	-1.0	2.9	-5	0.8%
O=C(/C=C/c1ccc(Cl)cc1Cl)N1CCc2ccccc21	-1	-8	-4.9	-0.2	-15	5.5%
CC(=O)Nc1ccc(-c2cn3cccnc3n2)cc1	-8	-3	-1.2	0.2	-2	-5.1%[38.3 µM]
CC1CCCCC1NC(=O)COC(=O)COc1ccccc1F (configuration not stated)	19	-9	-3.0	-0.5	-3	-1.2%
CC(C)C[C@H]1CNC(=O)C(=O)N1C[C@H]1CCCN1C[C@H](CC(C)C)N1C[C@H](Cc2ccccc2)N(CCc2ccccc2)C(=O)C1=O	37	-2	-4.4	-0.8	-2	2.4%
O=C(COc1ccc(Cl)cc1)N1CCCC1	-12	-2	-0.5	2.3	7	-1.4%
Cc1cc(N2C(=O)CC(N3CCN(C(c4ccccc4)c4ccccc4)CC3)C2=O)no1 (configuration not stated)	-11	3	-1.7	1.2	-7	2.6%
C/C(=N\NC(=O)C1CC1c1ccccc1)c1cccc([N+](=O)[O-])c1 (configuration not stated)	26	-14	1.3	1.0	-1	11%
O=S1(=O)[C@H]2C[C@H](CO)O[C@@]2(CO)CN1Cc1ccc(-c2cccc(Cl)c2)cc1	-2	-2	-1.7	-0.6	0	4.1%
Cc1nn(CC2CC2)c(=O)n1-c1ccccc1F	-6	1	5.4	-0.6	-3	-1.7%

Bioassay records from PubChem BioAssay.
